From PubChem
NS1 inh – influenza NS1 inhibition; S. cerevisiae slowed by influenza A NS1, growth recovery by OD600; Potency, µM (series often up to 46.1 µM), inactives show at the highest dose activity, positive = more growth; 270,000 compounds, 0.4% hits; note: actives are rising curves; nearly all actives have a fitted effect of over 50% in size
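A cell-based growth assay was used: compounds that relieve NS1-induced slow growth of budding yeast raise OD600. Assay medium was yeast nitrogen base with ammonium sulphate and -URA supplement, pH 6.0, with 2% galactose.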
RE007 growth inh – less growth of the S. pombe RE007 Vpr strain; AID 651644; Potency, µM (series often up to 92.2 µM), without a hit: at the top dose activity change, negative = less growth; S. pombe RE007 Vpr strain, BacTiter-Glo ATP luminescence, 24 h; control for the full effect not named in the record; 360,000 compounds, 0.21% hits; active = well fitted falling curve with a large enough effect; inconclusive = small, poorly fitted or top-dose-only effect; inactive = no such curve, though single readings can be large or run the other way;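 note: % is set by controls: 0 for no effect and ±100 for the full control effect; nearly all actives have a fitted effect of over 50% in size; the assay follows cell death caused by Vpr and the record does not say whether a fall means rescue or toxicity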
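Fission yeast RE007 carrying one integrated HIV-1 vpr copy, seeded at OD 0.01 in PMG+AL medium with 23 nL pinned compound. Grown 24 h at 30 degrees; viability read by BacTiter-Glo luminescence after 5 min.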
Cruzain Triton – inhibitors of Trypanosoma cruzi cruzain with detergent | 200,000 compounds, 0.43% hits | AID 1478 | Potency, µM, for inactives: max response, negative = inhibition, usual class: inhibitors | purified cruzain, Z-FR-AMC fluorescence, 0.01% Triton | P25779; active = well fitted curve in the direction sought with a large enough effect; inconclusive = small, poorly fitted or top-dose-only effect, or another doubt; inactive = no such curve, though single readings can be large; an effect the other way counts as inactive or inconclusive;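 note: plate controls were neutral wells for no effect and buffer without enzyme for full effect; nearly all actives have a fitted effect of over 40% in size; top concentration of the series not given in the record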
Target sequence (P25779 123-467 limits assumed): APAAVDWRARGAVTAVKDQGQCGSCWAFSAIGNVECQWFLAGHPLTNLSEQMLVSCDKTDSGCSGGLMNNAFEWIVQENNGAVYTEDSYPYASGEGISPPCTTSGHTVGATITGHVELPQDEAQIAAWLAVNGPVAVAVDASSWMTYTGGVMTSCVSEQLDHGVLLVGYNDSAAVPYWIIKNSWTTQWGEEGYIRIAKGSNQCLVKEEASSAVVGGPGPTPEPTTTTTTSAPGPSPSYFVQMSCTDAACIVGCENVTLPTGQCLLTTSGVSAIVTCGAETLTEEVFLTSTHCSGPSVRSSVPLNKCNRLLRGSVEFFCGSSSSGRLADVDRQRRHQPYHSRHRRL
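Detergent-containing run (0.01% Triton X-100) in acetate buffer pH 5.5 with 5 mM DTT: enzyme at 1.5 nM final, 15 min compound preincubation at room temperature, then 2 uM Z-FR-AMC substrate. Activity taken as 60 s fluorescence increase at 360/450 nm.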
StopGo reporter – lowers the luciferase signal of an FMDV 2A StopGo reporter. 410,000 compounds, 1.2% hits. Potency, µM (titrated, usually from 57.9 µM), for the others: at the top dose signal change, negative = less light. human cells with a luciferase reporter of 2A StopGo recoding; control for the full effect not named in the record; active = well fitted falling curve with a large enough effect; inconclusive = small, poorly fitted or top-dose-only effect; inactive = no such curve, though single readings can be large or run the other way; tested in HEK293T cells; note: % is set by controls: 0 for no effect and ±100 for the full control effect; nearly all actives have a fitted effect of over 45% in size; luciferase light after 4 h
Cruzain inh noDet – cruzain (T. cruzi) inhibition without detergent | Potency, µM, inactives show max response, negative = inhibition, usual class: inhibitors | purified cruzain, Z-FR-AMC fluorescence, no detergent | 200,000 compounds, 2.3% hits; active = well fitted curve in the direction sought with a large enough effect; inconclusive = small, poorly fitted or top-dose-only effect, or another doubt; inactive = no such curve, though single readings can be large; an effect the other way counts as inactive or inconclusive;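 note: plate controls were enzyme without inhibitor for no effect and buffer without enzyme for full effect; nearly all actives have a fitted effect of over 40% in size; top concentration of the series not given in the record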
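Purified cruzain at 1.5 nM, pre-incubated 15 min with compound at room temperature in 100 mM sodium acetate pH 5.5, 5 mM DTT, 0.00005% Triton X-100. Reaction started with 2 uM Z-FR-AMC; AMC fluorescence increase over 60 s gives rate.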
Marburg entry inh – blocks Marburg virus binding to or entry into cells; Marburg virus pseudotyped entry inhibition, cell reporter; control for the full effect not named in the record; about a third of the inactives were read at about 46 µM; Potency, µM (series often up to 37.8 µM), without a hit: top-dose activity change, negative = inhibition, most hits filed as inhibitors; 300,000 compounds, 1.8% hits; AID 540276; active = well fitted inhibition curve with a large enough effect; inconclusive = small, poorly fitted or top-dose-only effect, or effect the other way; inactive = flat fitted curve, though single readings scatter; tested in HEK293 cells; about a fifth of its hits are not listed in these tables; note: % is set by controls: 0 for no effect and ±100 for the full control effect; luciferase read-out
SARS PLP yeast – inhibitors of SARS-CoV papain-like protease in yeast; S. cerevisiae expressing SARS-CoV PLpro, growth rescue; control for the full effect not named in the record; Potency, µM (highest dose often 32.9 µM), without a hit: at the highest dose activity, positive = growth rescue; 330,000 compounds, 0.19% hits; AID 485353; note: 0% is about no effect; nearly all actives have a fitted effect of over 55% in size; growth read by luminescence after 48 h
Lassa entry inh – inhibitors of Lassa virus binding or cell entry; Lassa virus pseudotype entry inhibition, cell reporter; control for the full effect not named in the record; Potency, µM (top dose mostly 37.9 µM), for inactives: at the highest dose activity change, negative = inhibition, hits mostly inhibitors; 300,000 compounds, 1.2% hits; active means well fitted inhibition curve with a large enough effect; inconclusive means small, poorly fitted or top-dose-only effect, or effect the other way; inactive means flat fitted curve, though single readings scatter; tested in HEK293 cells; note: % is set by controls: 0 for no effect and ±100 for the full control effect; nearly all actives have a fitted effect of over 50% in size; luciferase read-out
* hit, by the source's call; u = inconclusive; x = no result given; & = joins results of further samples; [ ] = dose if it differs, or a comment. Unless noted, calls come from the whole dose curve; as a rule, active means well fitted rising curve with a large enough effect; inconclusive means small, poorly fitted or top-dose-only effect; inactive means no such curve, though single readings can be large or run the other way. Potency is the fitted concentration of half-maximal effect.

SMILES	NS1 inh	RE007 growth inh	Cruzain Triton	StopGo reporter	Cruzain inh noDet	Marburg entry inh	SARS PLP yeast	Lassa entry inh
Cc1cc(C)c(C)c(OCCCCN2CCCCC2)c1	21%	8%	x	-9%	x	-10%[46.1 µM]	-1%	18%[46.1 µM]
Cc1csc(NC(=O)CSc2nnc(-c3ccccc3)o2)n1	8%	-15%	5.9%	34%[activator]	2%	u	-4%	u
O=[N+]([O-])c1ccccc1OCCCN1CCOCC1	-6%	-3%	2.5%	38%[activator]	-3%	u	0%	1%
CCN(CC)CCNC(=O)C(=O)NCC1OCCN1S(=O)(=O)c1ccc2c(c1)OCCO2 (stereo not given)	x	1%	x	-16%	x	3%	0%	-1%
CCOc1cc(/C=N/Nc2nncc(-c3ccccc3)n2)ccc1O	x	0%	x	-15%	x	u	-2%	u
C/C(=N\NC(=O)C(C)Oc1ccc([N+](=O)[O-])cc1)c1ccccn1 (stereo not given)	-1%	u	0.6%	-26%	9%	u	-2%	12µM*
Cc1nc2ncnn2c(C)c1CCC(=O)N1CCN(Cc2ccccc2)CC1	-3%	-7%	2.4%	-2%	-2%	u	6%	8%
CCCN(Cc1cccs1)C(=O)Nc1cc(C)cc(C)c1	x	x	-9.2%	-11%	-10%	2%[46.1 µM]	x	-7%[46.1 µM]
Cc1ccc(CS(=O)Cc2ccc(C(=O)NCc3ccccc3Cl)o2)cc1 (stereo not given)	-8%	-2%	-5.3%	1%&-11%	-3%	x	3%	u
Cc1ccc(S(=O)(=O)N2CCCC2C(=O)OCC(=O)Nc2ccc3c(c2)OCO3)cc1 (stereo not given)	-14%	2%	-3.5%	-18%	-6%	9%&9%	1%	-14%
CC(C)c1nnc(SCC(=O)N2CCOCC2)n1C	19%	-7%	-0.3%	15%	19%	6%	9%	-6%
COc1cccc(CNS(=O)(=O)c2ccc3c(c2)N(C)CCO3)c1	2%	0%	x	46%[activator]	x	2%[46.1 µM]	2%	-18%[46.1 µM]
CCN(CC)CCn1c(NC(=O)c2ccccc2O)nc2ccccc21	-17%	4%	x	41%[activator]	x	x	-8%	x
COc1ccccc1NC(=O)CCN1CCCCCC1	0%	-23%	0.3%	x	0%	0%	1%	13%
CCN(C(=O)c1ccc(C(C)(C)C)cc1)c1nnc(Cn2nnc3ccccc32)s1	-5%	17%	-3.3%	u	1%	u	-13%	u
COc1ccc(S(=O)(=O)N2CCC(n3cnc4ccccc43)CC2)cc1	-12%	-5%	x	-18%	x	2%[46.1 µM]	5%	-22%
O=c1nc2ccccc2c2n1CC(CN1CCN(c3ccccc3F)CC1)N2 (stereo not given)	5%	-12%	1.4%	-12%	-3%	18%	5%	u
O=C1COc2ccc(C(=O)COC(=O)CNC(=O)c3ccco3)cc2N1	x	2%	x	-14%	x	23%	0%	-3%
CCOC(=O)c1ccc(NC(=O)Cn2cnc(S(=O)(=O)N3CCCC3)c2)cc1	-9%	-1%	-2.3%	-2%&-13%	-6%	-23%&-23%[46.1 µM]	6%	-14%&-4%[46.1 µM]
COC(=O)/C=c1\sc2ncnn2c1=O	-7%	-18%	2.0%	-27%	-3%	10%	-5%	10%
COc1cccc(NC(=O)Nc2nnc(Cc3ccc(F)cc3)s2)c1	0%	-12%	x	-2%	x	u	2%	1%
CC1CCCN(CC(=O)Nc2cc(Cl)ccc2Oc2ccccc2)C1 (stereo not given)	-14%	-7%	x	-28%	x	u	-6%	9%[46.1 µM]
C/C(=N\Nc1ccccn1)c1ccc2c(c1)OCO2	-2%	-16%	x	57%[activator]	x	u	3%	1%
Cn1nc(C(=O)Nc2nc(-c3ccc(F)cc3)cs2)ccc1=O	-4%	-10%	x	u	x	x	0%	x
COc1ccccc1NS(=O)(=O)c1ccc(O)c(C(=O)OCC(=O)c2ccc(Cl)cc2Cl)c1	x	1%	x	-8%	x	2%[46.1 µM]	-4%	-14%
c1cc(CNCCCN2CCOCC2)ccn1	1%	-12%	0.1%	-19%	-6%	u	-4%	1%
CC1CCC(NS(=O)(=O)c2cccc3nsnc23)CC1 (stereo not given)	5%	-7%	x	12%	x	-1%[46.1 µM]	-5%	18%
C=CCN(C(=O)CNC(=O)c1cccs1)C(C(=O)NC(C)(C)C)c1ccccc1 (stereo not given)	-10%	-1%	x	-2%	x	x	0%	x
O=C1CCC(C(=O)N2CCCCCC2)CN1CCc1ccc(Cl)cc1 (stereo not given)	2µM*	29%	x	8%	x	x	6%	x
CCC1(CC)Cc2ccccc2-c2nc(CN(C)C)[nH]c(=O)c21	3%	-4%	x	-23%	x	u	0%	-3%[46.1 µM]
CN1C(=O)C(C2(C#N)CCCCC2)C(=O)N(C)C1=O	-12%	-10%	-1.7%	-18%	-8%	-16%	4%	9%
Cc1ccc(C(=O)C(C)Oc2cccc(NC(=O)c3ccco3)c2)cc1 (stereo not given)	-44%	-12%	-8.5%	-24%	16%	-19%	-55%	u
C[C@@H]1ON(C2CCCCC2)[C@H]2c3nc4ccccc4n3C[C@@H]12	10%	4%	x	1%	x	x	-6%	x
O=C(CS(=O)(=O)c1ccccc1)N1CCCCC1	1%	0%	x	18%	x	9%[46.1 µM]	-3%	u
O=C(Nc1ccc2oc(-c3ccc(Cl)c(Cl)c3)nc2c1)c1ncn[nH]1	11%	5%	5.9%	75%[activator]	7%	u	0%	u
COc1ccc(N2C(S)=C(C#N)C(=O)NC2c2ccco2)cc1 (stereo not given)	11%	11%	-13%	-5%	-11%	-4%	-9%	11%
O=C(O)CCCCc1nc2ccccc2s1	2%	-4%	2.5%	24%	1%	7%	-12%	0%
O=C(Nc1ccc(NC(=O)c2ccccc2Cl)cc1)c1cccnc1	4%	2%	x	12%	x	u	-1%	0%[46.1 µM]
CC(=O)Nc1ccc(NC(=O)c2ccc(-c3ccccc3Cl)o2)cc1	x	-11%	x	5%	x	-20%	7%	7%
O=S1(=O)CCN(C(CCO)c2cccc(C(F)(F)F)c2)CC1 (stereo not given)	x	-6%	x	-15%	x	-18%[46.1 µM]	1%	0%
COc1ccc(C(CC(=O)Nc2ccc(Cl)cc2F)NC(=O)C(F)(F)F)cc1 (stereo not given)	15%	-1%	2.8%	-4%	u	-28%	4%	-3%
O=C(NCC1CCCO1)c1ccc(Cl)c(S(=O)(=O)Nc2ccccc2)c1 (stereo not given)	9%	-7%	x	32%[activator]	x	-1%	2%	-26%
CCn1c(O)c(/C(C)=N/N2CCCCC2c2cccnc2)c(=O)[nH]c1=S (stereo not given)	10%	-24%	-7.9%	-21%	-2%	u	-6%	-14%
CCc1nn2c(=O)cc(COC(=O)c3ccccc3NC(=O)c3ccc(C(C)(C)C)cc3)nc2s1	x	x	0.9%	18%	10%	x	x	u
COc1ccc(C(=O)Nc2cccc(OC)c2)cc1	-50%	u	3.7%	5%	0%	u	-13%	u
Cc1cccc(C)c1NC(=O)c1cc(S(=O)(=O)N2CCc3ccccc32)cn1C	23%	0%	x	-5%	x	x	7%	x
Cc1cc(=O)n2c(-c3ccccc3C)n[nH]c2n1	4%	1%	2.2%	38%[activator]	1%	5%	-3%	6%
CC1(C)CCC(C)(C)NC(=S)N1	-5%	1%&3%	0.5%	0%&-10%	2%	29%	28%	18%
N/C(Cc1ccc([N+](=O)[O-])cc1)=N\OC(=O)C(c1ccccc1)c1ccccc1	-17%	-6%	-7.3%	x	-7%	u	-8%	u
CCOc1ccc(-n2c(N)c(C(=O)NCc3cccnc3)sc2=S)cc1	6%	25%	-4.7%	-11%	3%	0%	7%	-15%
CC1=NN(C(N)=S)C(=O)C1N=Nc1ccc(Cl)cc1Cl (stereo not given)	-98%	-24%	x	10%	x	x	-21%	x
CC(C)(C)NC(=O)CSc1nnc(-c2c[nH]c3ccccc23)o1	12%	5%	x	39%[activator]	x	x	1%	x
NC(=O)CCS(=O)(=O)c1ccc(Cl)cc1	4%	24%	x	-7%	x	u	1%	-18%
Cn1c(CSCc2ccc(F)cc2)nnc1SCC(=O)Nc1nccs1	4%	5%	1.6%	-16%	7%	u	1%	-24%
Cc1cccc(C)c1NC1=NCCCCC1	x	-2%	x	-3%	x	-12%	-4%	5%
CSCC(=O)N1CCCC(N2CCN(c3ccc(F)cc3)CC2)C1 (stereo not given)	15%	-4%	x	-7%	x	13%[46.1 µM]	13%	8%[46.1 µM]
O=C(CN1CCCC1)NN=C(c1ccccc1)c1ccccc1	4%	-13%	x	-14%	x	x	0%	x
CC1=C/C(=N\NC(=S)Nc2cccnc2)CC(C)(C)C1	x	-4%	x	0%	x	-7%[46.1 µM]	20%	-12%
O=C(c1cccs1)N(Cc1cccnc1)c1nc2c(F)cc(F)cc2s1	x	x	-2.2%	u	-10%	x	x	5%[46.1 µM]
CN1CCN(C(CNC(=O)c2ccccc2F)c2ccc3c(c2)OCO3)CC1 (stereo not given)	x	x	0.4%	11%	8%	x	x	29%[46.1 µM]

Additional structures
SMILES	NS1 inh	RE007 growth inh	Cruzain Triton	StopGo reporter	Cruzain inh noDet	Marburg entry inh	SARS PLP yeast	Lassa entry inh
Cc1ccc(NC(=O)COc2ncnc3c(Cl)cc(Cl)cc23)cc1[N+](=O)[O-]	2%	19%	-0.5%	-19%	-4%	-1%	-18%	26%
C/C(=N/NC(=O)c1ccc(C)s1)c1cccc(NC(=O)COc2ccc(Cl)cc2C)c1	-10%	0%	0.4%	15%	u	23%	-4%	12%
Cc1csc2nc(CNC(=O)C3CC=CCC3C(=O)O)cn12 (stereo not given)	1%	6%	2.2%	5%	-12%	x	-4%	x
COc1ccc(-c2nnc(N)s2)cc1OC	x	-6%	x	-3%	x	11%[46.1 µM]	x	-13%[46.1 µM]
CNC(=O)c1cc2ccc(OC)cc2oc1=O	-7%	-25%	-12%	36%[activator]	u	28%[46.1 µM]	0%	6%
